# NPYLR7 ag – activates Aedes aegypti NPYLR7 receptor; HEK293T NPYLR7/Galpha15, GCaMP6s calcium fluorescence; activation, % at 10 µM; hit rate 0.15% among 270,000; AID 1259423; in the data active = activation above about 40%;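 also: 0% = vehicle and 100% = reference agonist at the receptor; some compounds past the cut are filed as inactive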
# NPYLR7 ag max-min – recorded beside NPYLR7 ag, whose call it bears; activation, %; measured here: Max-Min RFU normalised activation; some inactives read as strong as hits;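 span of the calcium signal over five minutes; 0% = vehicle and 100% = native peptide agonist; compound fluorescence can raise it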
# Numbers without * were called inactive; & = joins results of further samples.
Molecule	NPYLR7 ag	NPYLR7 ag max-min
Cc1ccccc1CN1CCC(CN(Cc2cccnc2)C(=O)C2CC23CCC3)CC1 (configuration not stated)	1	-3
COCOc1cccc(CN2CCC2(C)C(=O)Nc2cccc(OC)c2)c1 (configuration not stated)	8	3
Clc1ccc(-c2csc(NN=Cc3ccccc3)n2)cc1	-7	-14
Cc1nonc1C(=O)N1CCC(CCC(=O)Nc2ccccc2)CC1	9	3
O=C(NC1=NCCS1)c1cc(S(=O)(=O)N2CCN(c3ccccc3)CC2)ccc1Cl	13	13
CCCc1ccc(CN2CCn3nc(C(=O)N4CCN(C)CC4)cc3C2)o1	2	0
CN(C)C(=O)CSc1ncnc2sc3c(c12)CCCC3	3	5
COCC1(C(=O)NCCn2[nH]c(=O)c3ccccc3c2=O)CCC1	2	-3
COc1ccc(C(=O)N(Cc2c(-c3ccccc3)noc2N2CCCC2)CC(C)C)cc1	-2	1
CC1(C(=O)NS(=O)(=O)c2cccc(OC(F)F)c2)CCN1C(=O)c1ccccc1 (configuration not stated)	-2	-5
CCCn1c(C(=O)N2CCc3ccccc32)cc2c(=O)n(C)c(=O)n(C)c21	-3	-4
Cc1nc(C)c(CNC(=O)Cc2ccc(C#N)cc2)s1	-2	-3
Cc1cccc(-c2[nH]c(C(C)(C)C)nc2-c2ccc3c(c2)OCO3)n1	-6	-7
COc1cc(CNCc2cccnc2Oc2ccccc2C)ccc1F	6	2
CCCSc1ncccc1C(=O)NCCc1cccc(Cl)c1	-8	-13
COc1ccnc(NC2CCC(c3ccccc3)CC2)n1 (configuration not stated)	7	5
CCOC(=O)C1(Cc2ccccc2Cl)CCN(C(=O)CCC(=O)c2ccccc2)CC1	-8	-15
O=S(=O)(CCNc1ccc(Br)cc1)c1ccc(Cl)cc1	12	7
c1cc(-c2ccc(CN3C[C@@H]4[C@@H]5CC[C@@H](C5)[C@@H]4C3)o2)[nH]n1	-3	-3
CO[C@H]1C[C@H](O[C@H]2[C@H](C)[C@@H](O[C@@H]3O[C@H](C)C[C@H](N(C)C)[C@H]3O)[C@@H](C)C[C@@]3(CO3)C(=O)[C@H](C)[C@@H](O)[C@@H](C)[C@@H](C)OC(=O)[C@@H]2C)O[C@@H](C)[C@@H]1O	-1	-8
COC(=O)[C@@H]1C[C@@H](O)CN1C(=O)c1cc(C)sc1NC(=O)C(C)(C)C	16	9
O=C(Nn1cnc2c(cnn2-c2ccccc2)c1=O)c1ccccc1[N+](=O)[O-]	3	1
Cc1cc(C)n(-c2nc3c(c(=O)n2CC(=O)N2CCCc4ccccc42)CCCC3)n1	-7	-9
CCOC(=O)C1(C)CCN1C(=O)c1ccc2ccccc2c1 (configuration not stated)	0	-1
COc1cc(OC)c(Br)c(-n2c(C(C)N(CCC(C)C)C(=O)c3ccc(F)cc3)nc3ccccc3c2=O)c1 (configuration not stated)	-1	2
COc1ccc(OC)c(-c2ncnc3sccc23)c1	-4	-8
COc1ncc(C(=O)N2CC[C@@H](c3ccc4c(c3)OCO4)[C@H](O)C2)cn1	2	1
CCc1nc2ccc(C(=O)NCCOc3ccc(OC)cc3)cn2c1N(CC)C(=O)NCCc1ccccc1	-2	-14
CN(Cc1cc(-c2ccccc2)on1)C(=O)CC1NC(=O)c2ccccc21 (configuration not stated)	0	-2
N#CC1(NC(=O)Cn2ncc(Cl)c(Cl)c2=O)CCCCC1	1	0
CC(CCn1cccn1)NCC(=O)Nc1ccc(Cl)cc1F (configuration not stated)	17	16
CCCc1nc(N2CCCN(C(=O)COC)CC2)c2c(C)nn(-c3ccc(F)cc3)c2n1	-7	7
CN(C)C(=O)c1cc(NC(=O)N(C)Cc2ccc(F)c(F)c2)ccn1	3	0
COc1cc(OC)c(C2N=C(N)Nc3nc4ccccc4n32)cc1OC (configuration not stated)	6	1
NS(=O)(=O)c1ccc(-c2ccc(-c3ccn[nH]3)cc2)c(F)c1	8	7
CN(C)CCCn1c2c(c(SCC(=O)Nc3ccccc3Cl)nc1=O)CCCC2	-1	5
CCO[C@H]1COC[C@@H]1NC(=O)c1nc2c(s1)CCCC2	2	1
COc1ccc(Cn2cnc3cc(F)ccc3c2=O)cc1Br	16	8
CC(C)c1nnc(NC(=O)c2sccc2OC(F)F)s1	2	-1
CCCC1COCCN1C(=O)Cn1ccnc1CC (configuration not stated)	-1	9

# Ordered by length of the SMILES (lowest first): some entries from above
Molecule	NPYLR7 ag	NPYLR7 ag max-min
CCCC1COCCN1C(=O)Cn1ccnc1CC (configuration not stated)	-1	9
COc1ccc(OC)c(-c2ncnc3sccc23)c1	-4	-8
COc1ccnc(NC2CCC(c3ccccc3)CC2)n1 (configuration not stated)	7	5
CN(C)C(=O)CSc1ncnc2sc3c(c12)CCCC3	3	5
Clc1ccc(-c2csc(NN=Cc3ccccc3)n2)cc1	-7	-14
CCOC(=O)C1(C)CCN1C(=O)c1ccc2ccccc2c1 (configuration not stated)	0	-1
Cc1nonc1C(=O)N1CCC(CCC(=O)Nc2ccccc2)CC1	9	3
CCO[C@H]1COC[C@@H]1NC(=O)c1nc2c(s1)CCCC2	2	1
COCOc1cccc(CN2CCC2(C)C(=O)Nc2cccc(OC)c2)c1 (configuration not stated)	8	3
CCCc1ccc(CN2CCn3nc(C(=O)N4CCN(C)CC4)cc3C2)o1	2	0
CN(C)CCCn1c2c(c(SCC(=O)Nc3ccccc3Cl)nc1=O)CCCC2	-1	5
Cc1cccc(-c2[nH]c(C(C)(C)C)nc2-c2ccc3c(c2)OCO3)n1	-6	-7
CCCn1c(C(=O)N2CCc3ccccc32)cc2c(=O)n(C)c(=O)n(C)c21	-3	-4
COc1ccc(C(=O)N(Cc2c(-c3ccccc3)noc2N2CCCC2)CC(C)C)cc1	-2	1
CC1(C(=O)NS(=O)(=O)c2cccc(OC(F)F)c2)CCN1C(=O)c1ccccc1 (configuration not stated)	-2	-5
CCCc1nc(N2CCCN(C(=O)COC)CC2)c2c(C)nn(-c3ccc(F)cc3)c2n1	-7	7
COC(=O)[C@@H]1C[C@@H](O)CN1C(=O)c1cc(C)sc1NC(=O)C(C)(C)C	16	9
CCc1nc2ccc(C(=O)NCCOc3ccc(OC)cc3)cn2c1N(CC)C(=O)NCCc1ccccc1	-2	-14
COc1cc(OC)c(Br)c(-n2c(C(C)N(CCC(C)C)C(=O)c3ccc(F)cc3)nc3ccccc3c2=O)c1 (configuration not stated)	-1	2

# (next part)
Molecule	NPYLR7 ag	NPYLR7 ag max-min
COc1ncc(-c2c(-c3ccccc3)ncn2CCn2nc(C)c(C)c2C)cn1	1	0
CS(=O)(=O)N1CCC(C(=O)N(CC2CCCO2)c2nc3c(F)cccc3s2)CC1 (configuration not stated)	-5	-6
Cc1cc(C)cc(CSCC(=O)N[C@@H]2C[C@@H](CO)N(C)C2)c1	5	2
CCc1ccc(CNc2nnnn2C)cc1	0	2
CCCC1CCc2nc(N)nc(N)c2C1 (configuration not stated)	-1	-2
O=[N+]([O-])c1ccc(Sc2ccc(F)cc2)c(S(=O)(=O)N2CCCC2)c1	10	15
CCOc1ccc(-c2nc(N)ncc2-c2ccc(Br)cc2)c(O)c1	0	-4
COc1ccc(Nc2n[nH]nc2C(=O)NCc2ccc3c(c2)OCO3)cc1	-1	-6
CC(C)c1ccc2[nH]c3c(c2c1)CCC/C3=N\N=C/c1ccncc1	-1	-2
O=C(Nc1ccc2c(c1)OC(F)(F)O2)c1nn(CCOc2ccccc2)c2ccccc12	20	21
CCC(C)(C)NS(=O)(=O)c1ccc(Br)cc1Cl	14	7
COc1ccccc1NS(=O)(=O)c1ccc2oc(=S)n(CN3CCCC3)c2c1	-12	-15
CC(C)c1cc(CNC(=O)C2CCC(=O)N(CCCN3CCOCC3)C2)on1 (configuration not stated)	6	2
N#Cc1ccccc1CS(=O)(=O)NC(=O)C1=Cc2ccccc2OC1	3	1
Cc1ccc(-c2csc(-n3nc(C)cc3NC(=O)C3CC(=O)N(c4ccccc4C)C3)n2)cc1 (configuration not stated)	-10	-16
Cc1ccc(S(=O)(=O)N(C)CC(=O)NC2CCSc3ccc(Cl)cc32)cc1 (configuration not stated)	1	29
CC(C)N(CCC(N)=O)S(=O)(=O)NCc1ccccc1	15	15
CCn1c2c(=O)n(C)c(=O)n(C)c2n2c(-c3ccc(OC)cc3)nnc12	6	2
COc1ccc(-c2nc(COC(=O)c3nnn(-c4ccc(C)cc4)c3C)c(C)o2)cc1	8	13
O=C(COc1cccc(Cl)c1)N=Nc1c(O)[nH]c2c(Br)cc(Br)cc12	-2	-7
CN(C)c1ccc(NC(=O)c2ccco2)cc1CN(CC1CCCO1)C(=O)c1cccs1 (configuration not stated)	26	27
CC1=C(C(=O)Nc2ccccc2C)C(c2ccc(N(C)C)cc2)NC(=O)N1 (configuration not stated)	-11	-17
CN(C)c1nc2c(c(N3CCC(n4c(=O)[nH]c5ccccc54)CC3)n1)CCNC2	7	-1
c1ccc(CNC2=NCCC2)nc1	1	1
Cc1c(C(=O)N2CCN(c3cccc(Cl)c3)CC2)cc(-c2ccccc2)n1-c1ccccc1F	13	18
COc1ccc(-c2cnc3ncnn3c2N2CCCN(C(=O)C3CCCCC3)CC2)cc1OC	0	-4
O=C(NCCNC(=O)c1ccccc1)Nc1ccccc1F	5	4
COc1c(C)cc(S(=O)(=O)NCC(c2ccsc2)N2CCN(C)CC2)cc1C (configuration not stated)	1	-10
CCn1nc(C(=O)N(CCCN(C)C)c2nc3c(C)ccc(Cl)c3s2)cc1C	-1	-2
Cn1ccnc1CN(C(=O)c1cccc2ccnn12)C1CC1	1	-4
CN(c1ccccc1)c1nc(N2CCCC2)nc(-n2ccnc2)n1	1	-1
Cc1ccccc1OCC(=O)NN=Cc1cc(Br)ccc1O	-7	-13
Cc1nc(NCCNC(=O)C(C)C)cc(N2CCCC2)n1	-1	-3
CCCOc1ccc(C(=O)Nc2cccc(-c3nc4ccccc4o3)c2)cc1	-3	-8
CNC(=O)C1CCN(c2nn3cc(-c4ccccc4)nc3s2)CC1	1	-1
O=C(O)c1cc(-c2ccccc2)nn1-c1cccc([N+](=O)[O-])c1	14	29
COc1ccccc1CNC(=O)CNC(C)c1nncn1C (configuration not stated)	0	9
CC(c1ccc(-c2ccc3[nH]cc(C(=O)O)c(=O)c3c2)cc1)N1CCOCC1 (configuration not stated)	6	3
CCOc1cc2c(cc1CN(CCC#N)CC1CC1)OC(C)C2 (configuration not stated)	7	8
CCS(=O)(=O)Oc1cccc(CN(C(=O)C(C)Cl)C(C)C)c1 (configuration not stated)	9	15
COc1ccc(Cc2noc(CN(C)Cc3csc(-c4cccs4)n3)n2)cc1OC	7	-4
CC1(C(=O)NS(C)(=O)=O)CCN1C(=O)c1cccc2ccccc12 (configuration not stated)	1	0
Fc1cc(Cl)ccc1Oc1cc(N2CCNCC2)ncn1	14	24
COc1ccccc1Oc1ncccc1CNC(C)CC(F)(F)F (configuration not stated)	20	7
COCCCN(CC(=O)N1CCc2sccc2C1COc1ccc(C)cc1)C(=O)c1cccc(Br)c1 (configuration not stated)	-5	-3
O=C(NCC1(c2ccccc2)CCCC1)C1CCN(c2ccccc2)C1=O (configuration not stated)	16	7
O=C(Nc1ccc(F)c(Cl)c1)Nc1cccn2nc([C@@H]3O[C@H](CO)[C@@H](O)[C@H]3O)nc12	-1	-2
O=C(CN(C(=O)Nc1cccc(Cl)c1Cl)C1CC1)N(CCc1c[nH]c2ccccc12)Cc1ccc(C(F)(F)F)cc1	1	9
CCOC(=O)CN1CCN(c2ccc(Cl)c(Cl)c2)C(=O)C1C (configuration not stated)	0	5
O=C1CSC(c2ccccc2Br)N1c1ccccn1 (configuration not stated)	-8	-12
COc1ccc(NCC2(c3ccnc(C4CC4)c3)CC2)cc1	2	0
COC(=O)C(c1ccc(F)cc1Cl)C1C=CC(NC(=O)c2ccc(C(F)(F)F)c(F)c2)C1 (configuration not stated)	3	0
COc1cccc(C(=O)Nc2cc(C)nn2-c2nc3ccc(OC)cc3s2)c1	-10	-17
CCOC(=O)C1=C(C)OC(=N)C(C#N)C1c1ccccc1OC (configuration not stated)	-1	-7
COc1cccc(-n2c(-c3ccccc3)cc(C(=O)NCCC(C)C)c2C)c1	18	19
Nc1nc2c(F)cc(F)cc2s1	6	5
CC(C)(C)NC(=O)N(Cc1ccc(F)cc1)Cc1ccccc1OS(=O)(=O)c1ccc(F)cc1	28	20
COc1ccc(Cl)cc1-c1nc(C=Nc2ncccc2C)c(O)o1	-13	-19
O=C(Nc1nccs1)C1CCCN1C(=O)C12CC3CC(CC(C3)C1)C2 (configuration not stated)	0	39
CN(CC(O)COc1ccc(C(=O)c2ccccc2)cc1)C1CCCC1 (configuration not stated)	2&3	7&4

# Further compounds follow:
Molecule	NPYLR7 ag	NPYLR7 ag max-min
CC(C)n1nnnc1SCC(=O)Nc1cccc(F)c1	0	-1
CCOC(=O)C1(Cc2ccc(F)cc2)CCCN(C(=O)Cn2nc3ccccc3n2)C1 (configuration not stated)	2	-7
Cc1cccc(C2CC2C(=O)Nc2cc(F)cc(S(N)(=O)=O)c2)c1 (configuration not stated)	3	2
CCN(CC)CCN(C(=O)c1ccccc1OC)c1nc2c(F)cc(F)cc2s1	-6	-7
Cc1ccc(CN(CC(O)COCc2ccccc2)CC2CCCO2)s1 (configuration not stated)	21	18
COc1ccccc1CN(C)C(=O)c1ccc(N2CCCCC2=O)cc1	5	1
Cc1ccc(C(=O)NC2CC(C)N(C3CC3)C2)cc1I (configuration not stated)	-1	8
CNC(=O)CCN(C)Cc1cccc2c(C)c(C)[nH]c12	5	5

# A stretch from the list above, for reference:
Molecule	NPYLR7 ag	NPYLR7 ag max-min
Cc1ccccc1CN1CCC(CN(Cc2cccnc2)C(=O)C2CC23CCC3)CC1 (configuration not stated)	1	-3
COCOc1cccc(CN2CCC2(C)C(=O)Nc2cccc(OC)c2)c1 (configuration not stated)	8	3

# These rows are one share of the data, so the mix of outcomes need not match the whole.
